# Screening results (PubChem)
# GIRK2 activ: GIRK2 channel activation; HEK293-GIRK2 thallium flux, Thallos fluorescence; calls only for hits at 25 µM; hit rate 0.05% among 63,000;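 active means among the strongest 0.2% of first-round signals and kept after retests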;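 further: first round at about 10 µM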
# Target sequence (P48051 whole entry, looked up): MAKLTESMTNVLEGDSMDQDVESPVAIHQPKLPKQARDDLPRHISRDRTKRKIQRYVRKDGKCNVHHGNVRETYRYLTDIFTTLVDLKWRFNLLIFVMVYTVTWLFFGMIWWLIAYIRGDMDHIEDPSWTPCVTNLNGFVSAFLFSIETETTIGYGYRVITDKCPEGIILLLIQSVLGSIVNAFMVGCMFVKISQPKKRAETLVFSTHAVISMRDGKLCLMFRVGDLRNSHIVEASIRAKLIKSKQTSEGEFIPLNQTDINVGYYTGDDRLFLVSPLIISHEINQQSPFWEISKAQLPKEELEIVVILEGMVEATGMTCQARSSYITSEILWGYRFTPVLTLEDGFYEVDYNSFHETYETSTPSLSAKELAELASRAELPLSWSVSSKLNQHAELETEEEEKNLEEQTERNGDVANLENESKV
# Calls only; i = inactive. A portion of the library (hit frequency here may not be typical).
entry	molecule	GIRK2 activ
1	CC1=CCC2C(=O)N(c3ccc(O)cc3)C(=O)C2C1 (centres undefined)	i
2	CCSc1nnc(NC(=O)CN2CC(c3nc(-c4cccs4)no3)C2)s1	i
3	Cc1ccc2c(Nc3ccc(F)c(F)c3)c(C(=O)N3CCCCCC3)cnc2n1	i
4	COc1ccc(-n2c(=O)c3ccccc3n(Cc3cccnc3)c2=O)cc1OC	i
5	Cc1ccc(Nc2ccnc(Nc3cccc(C(N)=O)c3)n2)cc1O	i
6	CCOC(=O)Cc1csc(NC(=O)c2ccc(OCc3nc(C4CC4)cs3)cc2)n1	i
7	Cc1c(NS(=O)(=O)N2CCC(C)CC2)c(=O)n(-c2ccccc2)n1C	i
8	CCOc1ccc(-c2[nH]ncc2-c2nc(-c3cc(OC)c(OC)c(OC)c3)no2)cc1Cl	i
9	Cc1nc(-c2ccccc2)sc1C(=O)Nc1ccc(SCC(=O)N2CCCC2)nn1	i
10	COc1ccccc1S(=O)(=O)Nc1ccc2c(c1)CN(C)C(=O)N2	i
11	COc1ccc(C(=O)NC2CCN(C(=O)c3cn(-c4ccccc4)nn3)CC2)cc1	i
12	CC(C)(C)c1ccc(S(=O)(=O)NCCC(=O)O)cc1	i
13	O=C(NCC(F)(F)F)C(c1ccccc1)n1cccc1 (centres undefined)	i
14	COc1ccc(C2Oc3ccccc3C3=C2C(c2ccccc2OC)n2nnnc2N3)cc1 (centres undefined)	i
15	Cc1cc(=O)n(CCNC(=O)C2CC(=O)N(c3cccc(Br)c3)C2)cn1 (centres undefined)	i
16	CCc1cc(S(=O)(=O)N2CCc3ccccc32)ccc1OC	i
17	CC1CCCN(C(=O)C(=O)c2cn(CC(=O)N3CCOCC3)c3ccccc23)C1 (centres undefined)	i
18	COc1cc(Nc2c(C(=O)N3CCCC3)cnc3nc(C)ccc23)cc(OC)c1	i
19	O=C(c1ccc(S(=O)(=O)N2CCCC2)cc1)N1CCc2ccccc21	i
20	CCN1CCN(c2ncnc3scc(-c4ccc(F)cc4)c23)CC1	i
21	COc1ccc(F)cc1S(=O)(=O)N1CCC(c2nnc(-c3ccco3)s2)CC1	i
22	O=c1cc(CN2CCN(c3ccccc3)CC2)c2cc(O)c(-c3ccccc3)cc2o1	i
23	CC(C)(CCl)C(=O)Nc1ccc(N2CCCS2(=O)=O)cc1	i
24	Cc1cccc(-n2ncc3c(=O)[nH]c(-n4nc(C)cc4NC(=O)c4ccc(C(F)(F)F)cc4)nc32)c1	i
25	CCOC(=O)c1c(NC(=O)C2COc3ccccc3C2)sc(C)c1C (centres undefined)	i
26	COc1cccc(NC(=O)NCC#CCN2CCOCC2)c1	i
27	COc1ccc(-c2c(NC(C)=O)n(C)c3ccccc3c2=O)cc1OC	i
28	CS(=O)(=O)C1CCN(S(=O)(=O)Cc2cccc(F)c2)CC1	i
29	Cc1ccc(-c2noc(-c3cccn(CC(=O)NCc4ccccc4)c3=O)n2)cc1	i
30	CCOC(=O)CNC(=O)CN1CC(c2nc(-c3cccnc3)no2)C1	i
31	O=C(NCC1CCN(C(=O)c2cccnc2)CC1)Nc1ccc2c(c1)OCO2	i
32	COc1ccc(C(=O)N(CCCn2ccnc2)c2nc3c(C)cc(C)cc3s2)cc1OC	i
33	COc1cc(C2=CC(=O)OC2CC(=O)O)c(OC)c(O)c1-c1ccc(O)cc1 (centres undefined)	i
34	CCOC(=O)c1ccc(NC(=O)Cn2cnc3nc(N4CCCC(C(=O)NC)C4)sc3c2=O)cc1 (centres undefined)	i
35	CN1CCN(c2ccc(Nc3nc(N)c(C(=O)c4ccc5c(c4)OCCO5)s3)cc2)CC1	i
36	O=C(/C=C/c1ccc2c(c1)OCO2)NCC1CCN(C(=O)c2ccncc2)CC1	i
37	COc1ccc(OC)c(NC(=O)Cn2c(=O)nc(-c3ccccc3)c3cc(Cl)ccc32)c1	i
38	Cc1cc(C(F)(F)F)nc(CCNC(=O)CCS(=O)(=O)c2ccccc2)n1	i
39	CC(=O)N1CCN(Cc2c(C)noc2C)CC1	i
40	O=C(NCC1(c2ccccc2)CCOCC1)C1CCC1	i
41	N#C/C(C(=O)NCc1ccco1)=C1/SCC(=O)N1c1ccccc1	i
42	NS(=O)(=O)c1cccnc1Nc1ccc2c(c1)OCCO2	i
43	CC(C)Oc1ccc(-c2noc(Cn3cnc4c(nnn4Cc4ccccc4)c3=O)n2)cc1	i
44	Cc1nc(Nc2ccc(NS(=O)(=O)c3ccc(OC(F)(F)F)cc3)cc2)cc(-n2ccnc2)n1	i
45	COc1ccc(CC(=O)N2CCCC(c3nnc(-c4cccs4)o3)C2)cc1 (centres undefined)	i
46	Cc1cc(C)n(-c2ccc(=O)n(C(C)C(=O)Nc3ccc(F)c(Cl)c3)n2)n1 (centres undefined)	i
47	COc1ccc(NC(=O)c2nnn(-c3ccc(OC(F)(F)F)cc3)n2)cc1Cl	i
48	Cc1cc(=O)[nH]c(-n2nc(-c3cccs3)cc2NC(=O)CSCc2ccccc2)n1	i
49	Cc1nc(N2CCN(C(=O)Nc3ccc(F)c(Cl)c3)CC2)cc(-n2cccc2)n1	i
50	Cc1nc(Nc2ccccn2)cc(N2CCN(C(=O)Cc3ccccc3)CC2)n1	i
51	Cn1c(=O)c2[nH]c(N(CCO)CCO)nc2n(C)c1=O	i
52	CC1Oc2ccccc2OC1C(=O)Nc1ccc(CC(=O)NC2CC2)cc1 (centres undefined)	i
53	O=C(/C=C/c1ccco1)N1CCC(Cn2ccnc2)CC1	i
54	O=C(Nc1nc2c(s1)COCC2)c1ccc2ncsc2c1	i
55	COc1cc(NC(=O)Nc2ccc3c(c2)N(S(=O)(=O)c2ccccc2)CCC3)cc(OC)c1	i
56	CCCS(=O)(=O)N1CCCc2cc(NS(=O)(=O)c3ccc(OC)c(C)c3)ccc21	i
57	O=C(c1ccc[nH]c1=O)N1CC(c2nc(-c3cccs3)no2)C1	i
58	COc1ccccc1CN1CCc2nc(SCC(=O)Nc3ccc4c(c3)OCCO4)[nH]c(=O)c2C1	i
59	COC(=O)c1ccc(Oc2coc3c4c(ccc3c2=O)OCN(Cc2ccc(OC)cc2)C4)cc1	i
60	O=C(Cn1c(=O)nc(-c2ccccc2)c2cc(Cl)ccc21)Nc1ccccc1C(F)(F)F	i

# Next entries follow:
entry	molecule	GIRK2 activ
61	COc1cccc2cc(C(=O)Nc3ccc(Cn4cncn4)cc3)oc12	i
62	Cc1nc(-n2nc(-c3cccs3)cc2NC(=O)c2ccc(Br)o2)[nH]c(=O)c1C	i
63	CCCn1c(=O)c2ccc(C(=O)NC3CCCCC3)cc2n2c(=O)n(Cc3cc(C)ccc3C)nc12	i
64	COc1cccc2sc(OC3CN(C(=O)c4ccccc4F)C3)nc12	i
65	Cc1cc(=O)n2c(CCNC(=O)COc3ccccc3F)csc2n1	i
66	Cc1cc(C)cc(OCCNS(=O)(=O)c2cc([N+](=O)[O-])ccc2Cl)c1	i
67	COc1ccc(C(C)NC(=O)c2ccc(-n3nc(C)c(C)c3C)nc2)cc1OC (centres undefined)	i
68	CC(C)(C)OC(=O)NCC(=O)NC1CC(=O)N(C2CC2)C1 (centres undefined)	i
69	Fc1ccc(-c2nnc(Cc3nc(-c4cccc(Br)c4)no3)o2)cc1	i
70	CCOCCCNc1oc(-c2ccc(S(=O)(=O)N3CCCCC3)cc2)nc1C#N	i
71	Cc1noc(CNC(=O)c2coc(NC(=O)c3ccccc3)n2)n1	i
72	COc1cccc2sc(N3CC(C(=O)NCc4ccc5c(c4)OCO5)C3)nc12	i
73	CN1CCN(n2c3c(c(SCC(=O)Nc4nc5ccccc5s4)nc2=O)CCC3)CC1	i
74	O=C1CN(C(=O)c2cnn(-c3ccccc3)n2)CCN1	i
75	CCCCn1c(-c2cccc([N+](=O)[O-])c2)nc2c(c(=O)c3ccccc3n2C)c1=O	i
76	COC(=O)C1CCN(S(=O)(=O)CCNC(=O)c2ccccc2)CC1	i
77	Cc1nc(C)c(-c2nnc(NC(=O)c3cccc(N4C(=O)CCC4=O)c3)o2)s1	i
78	Cc1c(C(=O)c2ccccc2)oc2ccc(NC(=O)C(C)C)cc12	i
79	Cn1cnnc1SCc1cc(=O)c(OCC(=O)N2CCCCC2)co1	i
80	Cc1cc(C)nc(Nc2nc(CC(=O)N3CCC4(CC3)OCCO4)cs2)n1	i
81	Cc1cc(C(=O)N2CCc3nc(NC(=O)NC4CCCC4)sc3C2)no1	i
82	CS(=O)(=O)N1CCN(c2nc3ccccc3s2)CC1	i
83	COCCNC(=O)c1c(N)n(/N=C\c2ccc(C(=O)OC)cc2)c2nc3ccccc3nc12	i
84	COc1ccc(-c2csc(NC(=O)c3ccc4nsnc4c3)n2)cc1OC	i
85	CN(CC(=O)NCc1ccccn1)c1nc2c(F)cccc2s1	i
86	CCCCNC(=O)c1ccc(-n2ccnc2SCC(=O)Nc2cc(F)ccc2F)cc1	i
87	COCCOC(=O)c1c(C)oc2ccc(OCC#N)cc12	i
88	O=C(NCC1CCS(=O)(=O)C1)c1cc(-c2cccs2)[nH]n1 (centres undefined)	i
89	Cn1c(=O)c2cc(C(=O)NC(C)(C)C)n(Cc3ccccc3)c2n(C)c1=O	i
90	CCOCC(=O)N1CCC2(CC1)OCCCO2	i
91	CC(O)(CNC(=O)CCS(=O)(=O)c1ccccc1)c1ccc(-c2ccccc2)cc1 (centres undefined)	i
92	Cn1cccc(C(=O)NCC(O)c2ccc3c(c2)CCO3)c1=O (centres undefined)	i
93	COc1ccc(Cl)cc1C(=O)NCC#CCOc1ccc2c(c1)OCO2	i
94	COc1ccccc1C1c2c(oc3ccc(C)cc3c2=O)C(=O)N1c1nc(C)c(C)s1 (centres undefined)	i
95	CCCOc1ccc(S(=O)(=O)NCC2CCN(c3cnccn3)CC2)cc1	i
96	COc1ccc(OC)c(/C=C2\Oc3cc(OC(=O)C(C)(C)C)ccc3C2=O)c1	i
97	CCOC(=O)c1ccc(Nc2nnc(Cc3csc(N)n3)s2)cc1	i
98	COC(=O)c1ccc(CSc2nnc(NC(=O)c3cn(C)nc3OC)s2)o1	i
99	CS(=O)(=O)N1CCC(C(=O)N2CC(Oc3nc4c(Cl)cccc4s3)C2)CC1	i
100	O=C(NCCc1ccccc1)c1ccc2c(=O)nc3c(-c4cccc(F)c4)n[nH]n3c2c1	i
101	COc1ccc(C2(C(=O)Nc3ccc(N4CCCC4=O)c(C)c3)CCOCC2)cc1	i
102	Cn1nc(-c2ccc(F)cc2)cc1C(=O)NCCN1CCN(C(=O)c2cccs2)CC1	i
103	CCn1c(C)nnc1SCc1nc(-c2ccc(OC)c(OC)c2)oc1C	i
104	Cc1cccc(C(=O)Nc2nnc(-c3cccs3)o2)c1	i
105	CC1CCCN(S(=O)(=O)c2ccc(Cl)s2)C1 (centres undefined)	i
106	Cc1cnc(-n2nnc(C(=O)Nc3nc(-c4ccco4)cs3)c2C)s1	i
107	COc1ccc(-c2noc(CSc3nc4ccsc4c(=O)n3CC(C)C)n2)c(OC)c1	i
108	Cc1cn2c3c(=O)n(C)c(=O)n(C)c3nc2n1CCCN(C)Cc1ccccc1	i
109	CC(=O)NC1C(=O)N(CCCOc2ccc(Cl)cc2)c2c(C)cc(C)cc21 (centres undefined)	i
110	CCOc1ccc(C(=O)Nc2ccc3c(c2)CCCN3C(=O)C(C)C)cc1OCC	i
111	COc1cccc(S(=O)(=O)NCc2ccc(C(=O)NCc3ccco3)cc2)c1	i
112	O=C(CN1CCN(c2ccccc2F)C1=O)Nc1ccc2ncccc2c1	i
113	O=C(c1ccc(-c2ccccc2)cc1)N1CCN(Cc2nnnn2-c2ccccc2)CC1	i
114	CSc1ccc(-c2noc(-c3cn(C)c4ccc(C)cc4c3=O)n2)cc1	i
115	NC(=O)c1ccccc1NC(=O)Cc1cc(=O)[nH]c(SCc2ccccc2)n1	i
116	CC(C)N(CC#CCNC(=O)CSCc1ccccc1)C(C)C	i
117	Cc1nc(N2CCOCC2)cc(N2CCN(S(=O)(=O)Cc3ccccc3)CC2)n1	i
118	COc1cccc(C(=O)NCC2CCS(=O)(=O)C2)c1 (centres undefined)	i
119	Cc1cccc2nc(-c3cccc(NC(=O)C4CCCCC4C(=O)O)c3)cn12 (centres undefined)	i
120	O=C(CN1CCCN(Cc2ccccc2Cl)S1(=O)=O)NCc1ccccc1Cl	i

# Later entries.
entry	molecule	GIRK2 activ
121	CCCCCn1c(=S)[nH]c2cc(C(=O)N3CCC(C(N)=O)CC3)ccc2c1=O	i
122	CCCS(=O)(=O)N1CCc2ccc(NC(=O)Nc3cccs3)cc2C1	i
123	Cc1nc(C)c(C(=O)C2=C(O)C(=O)N(CCCN(C)C)C2c2ccc([N+](=O)[O-])cc2)s1 (centres undefined)	i
124	O=C(CSc1ccc(F)cc1)Nc1cnoc1	i
125	CCCCS(=O)(=O)N1CCN(Cc2nc3ccccc3[nH]2)CC1	i
126	O=C(c1csc(-c2ccccc2)n1)N1CCN(C(=O)C2CC2c2cccs2)CC1 (centres undefined)	i
127	Cc1ccc(C(=O)NC(C)C)cc1-c1ccc(C(=O)NCC2CC2)cc1	i
128	Nc1cc2cc(Br)ccc2cn1	i
129	CCOCCn1c(=O)c2c(nc3n2CCCN3c2cc(C)cc(C)c2)n(C)c1=O	i
130	O=C1C2N=NN(Cc3ccccc3)C2C(=O)N1c1ccc(Cl)cc1 (centres undefined)	i

# 7 records picked at random from the list so far, as already listed:
entry	molecule	GIRK2 activ
127	Cc1ccc(C(=O)NC(C)C)cc1-c1ccc(C(=O)NCC2CC2)cc1	i
129	CCOCCn1c(=O)c2c(nc3n2CCCN3c2cc(C)cc(C)c2)n(C)c1=O	i
123	Cc1nc(C)c(C(=O)C2=C(O)C(=O)N(CCCN(C)C)C2c2ccc([N+](=O)[O-])cc2)s1 (centres undefined)	i
128	Nc1cc2cc(Br)ccc2cn1	i
130	O=C1C2N=NN(Cc3ccccc3)C2C(=O)N1c1ccc(Cl)cc1 (centres undefined)	i
121	CCCCCn1c(=S)[nH]c2cc(C(=O)N3CCC(C(N)=O)CC3)ccc2c1=O	i
125	CCCCS(=O)(=O)N1CCN(Cc2nc3ccccc3[nH]2)CC1	i

# An excerpt from above in order of count of non-hydrogen atoms, largest number first.
entry	molecule	GIRK2 activ
60	O=C(Cn1c(=O)nc(-c2ccccc2)c2cc(Cl)ccc21)Nc1ccccc1C(F)(F)F	i
99	CS(=O)(=O)N1CCC(C(=O)N2CC(Oc3nc4c(Cl)cccc4s3)C2)CC1	i
1	CC1=CCC2C(=O)N(c3ccc(O)cc3)C(=O)C2C1 (centres undefined)	i
